Menin MLL FP FL – displaces fluorescein MLL peptide from human menin | Fluorescence polarization, fluorescein-MLL peptide displacement from menin | FP activity change, % at 61.4 µM | 290,000 tested, under 10 active; inconclusive = falling polarisation curve, or a change in total fluorescence; inactive = total fluorescence flat and polarisation flat or rising; no compound was filed as active; the % refers to the polarisation; negative = inhibition;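 note: % of control where 0% means no effect; inhibitors lower the polarisation; unlabelled MLL peptide was the positive control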
* hit, by the source's call; ? = inconclusive; & = joins results of further samples; [ ] = remark or other dose. Only part of the results is shown. The share of hits here may be higher or lower than overall.

Menin MLL FP FL | Structure
? | CCNc1ncc2nc(-c3ccc(F)cc3)c(=O)n(C)c2n1
0.7 | Cc1nc(-c2ccccc2)sc1-c1nc(-c2cccs2)ncc1S(=O)(=O)c1ccccc1
0.8&2.3 | CC(=Nc1ccccc1N)c1c(C)cc(=O)n(O)c1O
6.0 | Cc1ccc(S(=O)(=O)Nc2c(Cl)c(Cl)c(O)c3ccccc23)cc1
4.8 | CN(C)/C=N/c1c(C#N)cnn1-c1ccc(F)c(Cl)c1
-1.1&0.2 | O=C(Nc1ccccc1)N[C@H]1C[C@H](C(=O)O)Nc2cc(Cl)cc(Cl)c21
0.0 | CC(=O)OCC1OC(Oc2cc(OC(C)=O)c3c(=O)cc(-c4ccc(OC(C)=O)cc4)oc3c2)[C@@H](OC(C)=O)C(OC(C)=O)C1OC(C)=O (stereo not given in full)
-0.8 | O=c1c(-c2ccccc2)nc2cnc(Oc3ccccc3)nc2n1Cc1cccs1
? | COc1ccc(Oc2ncc3nc(-c4cn(C)c5ccccc45)c(=O)n(CCC#N)c3n2)cc1
2.1 | COc1ccccc1CN1CCC2(CC1)CCN(C(=O)c1ccco1)CC2
8.2[94.6 µM] | Cc1cccc(-c2cccc(-c3cc(=O)oc4cc5c(cc34)OCO5)c2)c1
0.4 | Cc1ccc(N(C(=O)C2COc3ccccc3O2)C(C(=O)NC2CCCCC2)c2cn(C)nc2C)cc1 (stereo not given)
1.8 | CC(=O)Oc1ccc(N2C(=O)C3C(C2=O)C2(C)C=CC3(C)O2)cc1 (stereo not given)
-0.3 | CCCCCCCCCCCCCCCC(=O)OC[C@H](O)[C@H]1OC[C@@H](O)[C@@H]1O
2.6 | CCOC(=O)CCCCCCCCCCCCC1C=CCC1 (stereo not given)
? | O=C(Oc1ccccc1)N1CCC2(CCCN(c3cccc(-c4ccccc4)c3)C2)CC1
? | COc1ccc(/C=C2\CCCc3c2nc2ccccc2c3C(=O)O)cc1OC
-7.6 | CC(C)NC(=O)N1CC2(CCN(S(=O)(=O)c3ccccc3)CC2)C1
0.2 | O=c1cc[nH]c(=S)[nH]1
1.4 | COc1cc(OC)c2c(OC)c(-c3ccc4c(c3)OCO4)c(=O)oc2c1
-4.0 | COc1ccc2[nH]cc(CCNc3ncnc4ccc(-c5c(C)noc5C)cc34)c2c1
0.6 | COc1ccc(-c2[nH]n(-c3ccc([N+](=O)[O-])cc3)c(=O)c2C=NCCN2CCNCC2)cc1
? | O=C(NCc1ccc(/C=c2\sc3n(c2=O)CCN=3)o1)C(=O)Nc1ccccc1
-0.7 | CCCCCCCCCC(=O)OCC(CO)OC(=O)CCCCCCCCC (stereo not given)
? | Cn1cc(-c2nc3cncnc3n(C3CC3)c2=O)c2ccccc21
-3.8[24.8 µM] | O=C1CN(/N=C\c2ccc([N+](=O)[O-])o2)C(=O)N1
-2.0 | COC1C(O)C(CO)OC1n1cnc2c(NC3CCCCC3)ncnc21 (stereo not given)
13 | Cc1csc(CNc2ncnc3ccc(-c4c(C)noc4C)cc23)c1
-6.3 | NCCC[C@@H](CC(=O)N[C@@H]1CCNC[C@H]1C(=O)N[C@H](CC(=O)N[C@@H](CCC(=O)O)CC(=O)O)Cc1ccccc1)NC(=O)C[C@H](Cc1ccccc1)NC(=O)[C@@H]1CCCC[C@H]1N
6.1 | Cc1ccc(S(=O)(=O)N(C(=N)N)c2nc(N(C)C)nc(N(C)C)n2)cc1
3.8 | Cc1cc(C)n(-c2nc3sc4c(c3c(=O)[nH]2)CCCC4)n1
4.5 | CCOC(=O)Cn1c(=O)c2c(nc(Br)n2Cc2ccccc2)n(C)c1=O
-8.7 | COCCn1c(=O)c(-c2cc(F)cc(F)c2)nc2cnc(Oc3cccc(Cl)c3)nc21
-4.1 | CN(C)Cc1ccccc1-c1cncnc1NCc1ccccc1
-1.2 | COc1cccc(/C=N/N2C(=O)C3C4c5ccccc5C(c5ccccc54)C3C2=O)c1OC (stereo not given)
? | O=C(c1ccncc1)N1CCC2(CCCN(c3cccc(-c4ccccc4)c3)C2)CC1
3.5 | Fc1ccccc1-c1n[nH]c(=S)n1C1CC1
-1.1 | COCCNc1nc(C)nc2c1nc(-c1ccccc1)n2CCN(C)C
-6.0 | O=C(O)COc1ccccc1/C=N/NC(=O)c1ccncc1
9.3 | O=c1cnc2cnc(Oc3ccccc3)nc2n1C1CC1
? | OC[C@H]1O[C@@H](OC[C@H]2O[C@@H](O)[C@H](O)[C@@H](O)[C@@H]2O)[C@H](O)[C@@H](O)[C@@H]1O
-0.8 | CCN(CC)CCn1c(-c2ccccc2)nc2c(N3CCOCC3)nc(C)nc21
1.3 | CN1CCc2cc(O)c(O)cc2C1Cc1ccc(O)c(O)c1 (stereo not given)
? | CN(C)c1ncc2nc(-c3cccs3)c(=O)n(C)c2n1
-5.2&-4.8 | COCCOC(=O)C1=C(C)NC(C)=C(C(=O)OC/C=C/c2ccccc2)C1c1cccc([N+](=O)[O-])c1 (stereo not given)
-6.2 | COCOc1ccccc1C(=O)/C=C/c1ccccc1
0.0[11.7 µM] | CC1CCC2C(=O)N3C(CCC(C)C3c3ccccc3Br)C(=O)N2C1c1ccc(C#CCN(C)C)cc1 (stereo not given)
1.7 | O=C1[C@@H]2[C@H](Cc3ccc(O)cc3)N[C@]3(C(=O)Nc4ccccc43)[C@@H]2C(=O)N1c1ccc(F)cc1
0.9 | CSCC[C@H](NC(=O)[C@@H]1CCCN1C(=O)CNC(=O)[C@H](CCCCN)NC(=O)[C@H](Cc1cnc[nH]1)NC(=O)[C@H](CO)NC(=O)[C@H](CC(C)C)NC(=O)[C@H](CCCN=C(N)N)NC(=O)[C@@H]1CCCN1C(=O)[C@H](CCCN=C(N)N)NC(=O)[C@@H]1CCC(=O)N1)C(=O)N1CCC[C@H]1C(=O)N[C@@H](Cc1ccccc1)C(=O)O
1.3 | O=C(O)COc1ccc(-c2nccc(-c3cccs3)n2)cc1

Other results:
Menin MLL FP FL | Structure
? | CCCCOc1cc(C[C@@H]2CNC(=O)N2)ccc1OC
-0.5 | COC(=O)N1CCC[C@@]2(CCN(C(=O)NC(C)C)C2)C1
-7.3 | CC(C)CC(NC(=O)OCC1c2ccccc2-c2ccccc21)C(=O)O (stereo not given)
-2.0 | O=C(c1csnn1)N1CCC2(CC1)CN(c1ccccc1)C2
-2.2 | CCc1cc(-c2oncc2-c2ccc(OC)cc2)c(O)cc1OC
-1.5 | CCCCCCCCCCCCCCCCCC[N+](C)(C)CCC[Si](OC)(OC)OC
-1.1 | O=C(O)C1CCCN1S(=O)(=O)c1cccs1 (stereo not given)
2.2 | CC[C@H](C)[C@H](NC(=O)[C@H](CC(C)C)NC(=O)[C@@H](N)CO)C(=O)NCC(=O)N[C@@H](CCCN=C(N)N)C(=O)N[C@@H](CC(C)C)C(=O)O
1.4[11.7 µM] | CC(C)[C@@H](OCc1ccccc1)[C@H](C)/C=N\OC[C@@H](C)[C@H](OCc1ccccc1)C(C)C
-0.2 | CCOC(=O)CNC(=O)O[C@@H]1C(=O)c2cc(OC)ccc2O[C@H]1c1ccc(OC)c(Br)c1
-0.3 | COCCn1c(=O)c(-c2cc(F)cc(F)c2)nc2cnc(N3CCNCC3)nc21
-3.4 | CCCCc1c2ccccc2nc2[nH]c3ccccc3c12
1.2 | CC[C@H](C)[C@H](NC(=O)[C@@H]1CCCN1C(=O)[C@H](Cc1cnc[nH]1)NC(=O)[C@@H](NC(=O)[C@H](Cc1ccc(O)cc1)NC(=O)[C@@H](NC(=O)[C@H](CCCN=C(N)N)NC(=O)CNC)C(C)C)[C@@H](C)CC)C(=O)O
1.5 | Clc1cccc(-c2nn3c(-c4ccncc4)nnc3s2)c1
1.5 | CC(C)C[C@@H](CC(=O)N[C@@H](CCCN)CC(=O)N[C@@H]1CCCC[C@H]1C(=O)N[C@H](CC(=O)N[C@@H](CCC(=O)O)CC(=O)O)CC(C)C)NC(=O)[C@@H]1CCCC[C@H]1N
4.1[11.7 µM] | CO[C@H]1C[C@@H]2C[C@H](O)C[C@@H](CC(=O)O[C@@H](/C=C\CC(C)C)C[C@@H]3CC[C@H](C)[C@@H](C1)O3)O2
-2.5 | O=C(c1cc2cc(Br)cc(Br)c2oc1=O)N1CCCc2ccccc21
-10 | COc1ccc(-c2nc(-c3ccccc3)oc2Nc2ccc3ccccc3c2)cc1
0.1 | O=C(NCCCCCCNC(=O)NCc1ccco1)NCc1ccco1
0.8 | CC(=O)O[C@@H]1CC[C@@]2(C)[C@H](C1)[C@H](OC(C)=O)C[C@@H]1[C@@H]2C[C@H]2[C@@H]3CN4C[C@H](C)CC[C@H]4[C@H](C)[C@H]3CC[C@@]12O
2.5 | NC(=O)[C@H]1O[C@@H](O)[C@H](O)[C@@H](O)[C@@H]1O
-0.2[24.8 µM] | CC(=O)[C@H]1CC[C@H]2[C@@H]3C=CC4=CC(=O)CC[C@@]4(C)[C@H]3CC[C@]12C
-2.8 | O=C(O)c1c(C(=O)O)c2ccccc2[nH]c1=O
-14 | Cc1ccc(NC2=CC(=O)c3sc(C)nc3C2=O)cc1
-0.4 | O=c1[nH]cnc2c1ncn2C1CC(O)C(CO)O1 (stereo not given)
-1.3 | O=S(=O)(O)c1ccc(O)cc1
-9.9 | COc1ccc2[nH]c(-c3ccccc3)c(CCNC(C)=O)c2c1
1.6 | O=C(NCCc1c[nH]c2ccccc12)c1ccccc1O
0.1 | COc1ccc(N2C(=O)N(Cc3ccccc3F)c3ccccc3S2(=O)=O)cc1
0.2 | O=C(CCCc1ccc(-c2ccccc2F)cc1)Nc1ccc(O)cc1

Three of the compounds above, in CSV form.
compound,Menin MLL FP FL
Cc1ccc(NC2=CC(=O)c3sc(C)nc3C2=O)cc1,-14
O=c1[nH]cnc2c1ncn2C1CC(O)C(CO)O1 (stereo not given),-0.4
O=S(=O)(O)c1ccc(O)cc1,-1.3

A second format for some results above.
Molecule,Menin MLL FP FL
O=C(O)c1c(C(=O)O)c2ccccc2[nH]c1=O,-2.8
Cc1ccc(NC2=CC(=O)c3sc(C)nc3C2=O)cc1,-14
O=c1[nH]cnc2c1ncn2C1CC(O)C(CO)O1 (stereo not given),-0.4
O=S(=O)(O)c1ccc(O)cc1,-1.3
COc1ccc2[nH]c(-c3ccccc3)c(CCNC(C)=O)c2c1,-9.9

New compounds follow
Menin MLL FP FL | Structure
-2.1 | CC(C)NC(=O)N1CCC2(CC1)CCN(S(C)(=O)=O)CC2
-0.8 | O=C(c1cc(C(F)(F)F)cc(C(F)(F)F)c1)N1CCC2(CCCN(Cc3nccs3)C2)CC1
-5.2 | COCCN(CCOC)c1nc(C)nc2c1nc(-c1ccccc1)n2CCCN1CCCCC1C (stereo not given)
-6.2 | CCC1=C2CC[C@H]3C(=O)N(CC(=O)OC)C(=O)[C@H]3[C@H]2[C@@]2(Cc3ccccc3)C(=NCCc3c[nH]c4ccccc34)OC(=O)N2C1=O
-0.9 | Cn1cnnc1SCC(=O)N1c2ccccc2-c2c(ssc2=S)C1(C)C
-0.3 | CN(C)CC#CCCCCCCC#CCN(C)C
-0.9 | CC(C)C[C@@H](C(=O)N[C@@H](Cc1c[nH]c2ccccc12)C(N)=O)N1C[C@]2(CCCN2C(=O)[C@H](Cc2ccccc2)NC(=O)[C@H](Cc2ccccc2)NC(=O)[C@H](CCC(N)=O)NC(=O)[C@H](CCC(N)=O)NC(=O)[C@@H]2CCCN2C(=O)[C@H](CCCCN)NC(=O)[C@@H]2CCCN2C(=O)[C@@H](N)CCCNC(=N)N)CC1=O
4.7 | Oc1c(Cl)cc(CN2CCCCC2)c2cccnc12
-14&-4.6 | Cn1cc(NC(=O)c2cc(NC(=O)c3cc(NC=O)cn3C)cn2C)cc1C(=O)NCCC(=N)N
-2.5 | COC(=O)[C@@H]1C[C@H]1[C@@H](NS(=O)(=O)c1ccc2ccccc2c1)c1ccccc1
2.4 | c1ccc(CNc2oc(-c3ccccc3)nc2-c2cccc3ccccc23)cc1
-0.7 | O=C(O)c1ccc2c(c1)C(=O)N([C@H](Cc1ccc(O)cc1)C(=O)O)C2=O
-0.5 | Cc1nc2[nH]c(=O)[nH]c(=O)c2[nH]1
-2.3 | O=C(c1csnn1)N1CCC2(CC1)CN(C(c1ccccc1)c1ccccc1)C2
11 | CC(C)c1cccc2nc3c(c([Si](C)(C)C)c12)Cn1c-3cccc1=O
-1.9 | CN(C)C(=O)c1ccc(-c2nccc(NCc3cccnc3)n2)cc1
4.4 | C=CCOC(=O)N[C@H](/C(C(=O)OC)=C(\C)NCc1ccccc1)c1ccc(Br)cc1
-3.4[11.7 µM] | CO/N=C(\C)CCN1CCCCc2nc(C)c(C)cc21
-0.8 | COc1ccc2c(c1OC)C(=O)c1ccccc1C2=O
0.4 | COc1ccccc1-c1cncnc1NCCNC(C)=O

Some of these compounds in order of SMILES length, lowest first:
Menin MLL FP FL | Structure
2.1 | COc1ccccc1CN1CCC2(CC1)CCN(C(=O)c1ccco1)CC2
-10 | COc1ccc(-c2nc(-c3ccccc3)oc2Nc2ccc3ccccc3c2)cc1
-8.7 | COCCn1c(=O)c(-c2cc(F)cc(F)c2)nc2cnc(Oc3cccc(Cl)c3)nc21
-0.2 | CCOC(=O)CNC(=O)O[C@@H]1C(=O)c2cc(OC)ccc2O[C@H]1c1ccc(OC)c(Br)c1

Additional entries follow.
Menin MLL FP FL | Structure
-3.5 | CCCn1c(C)nc2c(NCCN(C(C)C)C(C)C)nc(C)nc21
1.6&-0.4 | CCN(CC)CCOc1ccc(C(O)(Cc2ccc(Cl)cc2)c2ccc(C)cc2)cc1 (stereo not given)
7.1 | CCCC[C@@H]1C[C@H]1C(NC(=O)c1ccco1)c1ccc(-c2ccccc2)cc1 (stereo not given in full)
1.7 | O=C1c2oc3ccc(Br)cc3c(=O)c2C(c2cccnc2)N1Cc1ccco1 (stereo not given)
-4.3 | CCCCCCCCCCCCCCCCOCCOCCOCCOCCOCCOCCOCCOCCOCCOCCOCCOCCOCCOCCOCCOCCOCCOCCOCCOCCO

Bioassay records from PubChem BioAssay.
